D2 PAM – human D2 receptor positive allosteric modulation | P14416 | DiscoveRx D2 beta-arrestin cells, luminescence, 90 min; 100% = 57 uM dopamine signal | 0.23% of 360,000 active | potentiation, % (no concentration beside the values) | AID 624464; active = potentiation of 50% or more; inconclusive = 30% to 50%; inactive = 30% or less;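 note: compound concentration not given in the record; tested on top of an EC20 dose of dopamine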
Target sequence (P14416 whole entry, looked up): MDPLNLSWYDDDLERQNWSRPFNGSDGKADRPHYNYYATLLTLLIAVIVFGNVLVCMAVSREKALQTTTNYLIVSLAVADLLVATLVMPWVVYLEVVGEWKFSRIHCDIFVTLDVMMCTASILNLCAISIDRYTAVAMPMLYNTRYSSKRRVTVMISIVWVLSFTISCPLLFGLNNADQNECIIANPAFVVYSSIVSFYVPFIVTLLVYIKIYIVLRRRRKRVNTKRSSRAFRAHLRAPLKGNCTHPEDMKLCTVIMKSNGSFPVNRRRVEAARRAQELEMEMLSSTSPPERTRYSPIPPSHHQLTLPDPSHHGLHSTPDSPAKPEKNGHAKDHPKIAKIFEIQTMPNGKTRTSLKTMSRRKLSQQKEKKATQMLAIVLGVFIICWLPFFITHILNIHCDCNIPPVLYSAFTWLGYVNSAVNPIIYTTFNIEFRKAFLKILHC
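PathHunter D2 cells, attached overnight at 37 deg C, received compound in DMSO plus dopamine at EC20 (50 nM final) for 90 min at 37 deg C. Beta-arrestin recruitment was read as luminescence after 1 h with detection reagent at ambient temperature.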
Sfp PPTase inh – blocks B. subtilis Sfp PPTase activity | Q9F4F7 | Biochemical Sfp PPTase activity, qHTS | Potency, µM, without a hit: max response, negative = inhibition, hits mostly inhibitors | 3.5% of 310,000 active | AID 1490; active = well fitted inhibition curve with a large enough effect; inconclusive = small, poorly fitted or top-dose-only effect, or another doubt; inactive = no such curve, though single readings can be large or run the other way;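 note: the enzyme is Sfp with the accession as filed and its product quenches rhodamine fluorescence; potency is the fitted concentration of half-maximal effect; 0% = enzyme reaction without inhibitor and -100% = no enzyme wells; top concentration of the series not given in the record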
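After 15 min at room temperature with compound, 15 nM Sfp received 5 uM rhodamine-CoA plus 12.5 uM BHQ-2-ybbR (50 mM Hepes pH 7.6, 10 mM MgCl2). Rate came from the fluorescence difference over 30 min, ex 525/em 598 nm.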
TRPV1 PAM – human TRPV1 potentiation | Q8NER1 | TRPV1-expressing cells, Fluo-8 calcium influx, capsaicin EC20 potentiation; host cell line not named in the record; control for the full effect not named in the record | potentiation, % at 8.33 µM | 0.02% of 320,000 active; active means potentiation above 80%; inconclusive means 30% to 80%; inactive means below 30%; note: 0% is about no effect
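Fluo-8 calcium influx in TRPV1-expressing cells, kinetic read (ex 480/em 520 nm). Compound added and read 3 min for agonist activity, followed by capsaicin at EC20 final and 2 min further read for enhancement.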
Six1-Eya2 blk – inhibitors of human Six1/Eya2 interaction | AID 651725 | activity change, % (no concentration beside the values) | AlphaScreen GST-Six1/His-Eya2 binding, biochemical; stronger effect = lower value; control for the full effect not named in the record | 0.56% of 360,000 active | Q15475+O00167; in the data active = activity change below about -65%; inconclusive = about -30% to -65%; inactive = above about -30%; note: % is set by controls: 0 for no effect and ±100 for the full control effect; compound concentration not given in the record
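Homogeneous AlphaScreen proximity assay pairing GST-Six1 with His-tagged Eya2 (added as 5X mix: 250 nM and 500 nM) in 50 mM Tris pH 8.0, 300 mM NaCl, 1 mM TCEP. Glutathione donor and nickel acceptor beads; 1 h, 37 °C, dark.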
PINK1 expr mod – PINK1 expression modulation; 0.2% of 410,000 active; Potency, µM (doses to about 76.6 µM), without a hit: at the highest dose activation (PINK1 increase), actives largely listed as activators; PINK1 immunofluorescence, high-content cytometry, 24 h; AID 624263; active = well fitted activation curve with a large enough effect; inconclusive = small, poorly fitted or top-dose-only effect; inactive = flat fitted curve, though single readings scatter; cell line not stated here;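 note: potency is the fitted concentration of half-maximal effect; % of control where 0% means no effect; nearly all actives have a fitted effect of over 65% in size; a mitochondrial uncoupler was the plate control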
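Stable cell line, 250 cells/well, 12 h attachment; compounds pinned at 5 concentrations, 24 h; CCCP control. Fixed with nuclear dye, primary antibodies 12 h at 10 degrees C, secondary plus cell stain; laser-scanning cytometer read.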
CtBP-E1A inh – inhibitors of CtBP/E1A interaction; AID 651724; activity change, % (no concentration beside the values); 0.49% of 340,000 active; AlphaScreen GST-E1A/His-CtBP binding, 1536-well; stronger effect = lower value; control for the full effect not named in the record; in the data active means activity change below about -65%; inconclusive means about -30% to -65%; inactive means above about -30%; note: % is set by controls: 0 for no effect and ±100 for the full control effect; compound concentration not given in the record
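GST-E1A and His-tagged CtBP (125 nM each as 5X stock) were preincubated with pin-transferred compound for 2 h at 37 °C in the dark, then glutathione donor and nickel acceptor beads were added for 1 h before AlphaScreen reading.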
D2 agonist – agonists of human D2 dopamine receptor (beta-arrestin) | P14416 | DiscoveRx PathHunter D2 beta-arrestin, luminescence, 90 min; 100% = 57 uM dopamine signal | activation, % (concentration not given with the values) | 0.084% of 360,000 active; in the data active = activation above about 40%; inconclusive = about 15% to 40%; inactive = below about 15%; note: compound concentration not given in the record; the text of the record calls up to 30% inactive
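Agonist mode: compounds alone added to overnight-plated D2 PathHunter cells for 90 min at 37 C, with 57 uM final dopamine (EC100) defining full response. Beta-arrestin recruitment detected by chemiluminescent reagent, read after 1 h at ambient temperature.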
The depositor's hits bear a star; ? = inconclusive; nt = no result given; & = joins results of further samples; [ ] = remark or other dose.

The line under a structure holds: Six1-Eya2 blk	CtBP-E1A inh	D2 PAM	TRPV1 PAM	PINK1 expr mod	Sfp PPTase inh	D2 agonist
Cc1c2cnn(CC(=O)NCCCN3CC(C)CC(C)C3)c(=O)c2c(C)n1Cc1ccccc1Cl (stereo unspecified)
 : -6	-10	-39	-5	0.6%	-2%	1.6
CCC(C)N1CNc2c(c(=O)[nH]c(=S)n2-c2cccc(C)c2)C1 (stereo unspecified)
 : 9	14	-5	5	-0.4%	6%	-1.9
CCN(CC)S(=O)(=O)c1cc(NS(=O)(=O)c2c(Cl)cccc2Cl)ccc1C
 : 6	-8	9	0	1.7%	1%	-5.2
Cc1cc(C)n(CC(=O)NNC(=O)c2ccc(S(C)(=O)=O)cc2)n1
 : 4	16	-7	nt	-1.2%	nt	2.5
Cn1c(N)c(C(=O)c2ccc(Cl)c(S(=O)(=O)N3CCCCCC3)c2)c(=O)n(C)c1=O
 : 0	-3	-1	nt	-0.4%	nt	-0.8
O=C(/C=C/c1cccc(F)c1)NC1CCN(Cc2ccccc2)CC1
 : 8	-13	-18	-3	0.8%	10%	-2.7
COc1ccccc1NC(=O)CN1CC(=O)Nc2ccccc21
 : 1	10	2	11	0.2%	9%	-6.1
CCOC(CCc1c(C)nc(NC(C)=O)[nH]c1=O)OCC
 : 1	nt	-11	27	0.3%	6%	-0.4
Cc1cccc(C)c1NC(=O)CSc1nnc(Cn2nnc(-c3ccccc3)n2)n1-c1ccccc1
 : -5	-1	4	10	6.4%[38.3 µM]	-10%	-1.8
Cn1c(Cc2ccccc2)nnc1SCC(=O)Nc1ccc2c(c1)OCCO2
 : 0	4	-15	2	?	-4%	-3.2
CNC(=S)N/N=C(\C)c1cccc([N+](=O)[O-])c1
 : -4	-2	-4	4	0.9%	56µM*	-3.2
CC(C)OC(=O)C1C(=O)CC(C)(O)C(C(=O)OC(C)C)C1c1ccccc1 (stereo unspecified)
 : -14	7	4	-14	-2.9%	2%	4.2
CCC(=O)Nc1ccc2c(c1)C(=O)N(C1CCCCC1)C2=O
 : 1	4	-17	-5	3.5µM*	8%	0.0
CCCCC(=O)NS(=O)(=O)c1ccc(N=NN(CC)CC)cc1
 : 0	-11	-3	10	0.6%	4%	-3.0
CC1=NN(C(=O)Cc2ccc(C)cc2)C(O)(c2cccnc2)C1 (stereo unspecified)
 : 3	2	-23	6	-2.6%	15%	-4.5
CCc1cc(=O)oc2cc(C)c(CN3CCCCC3)c(O)c12
 : -29	11	-9	10	6.8%	-18%	-1.5
COc1ccc(OCCOC(=O)c2cc(S(=O)(=O)N3CCOCC3)c(Cl)cc2Cl)cc1
 : 1	0	?	26	0.4%	nt	4.7
CCOc1ccc2nc(SCC(=O)NC3CCS(=O)(=O)C3)[nH]c2c1 (stereo unspecified)
 : -1	2	23	2	0.3%	8%	-0.9
COc1ccc(-c2ccc([C@H]3[C@H]4C=CC[C@@H](C)[C@@H]4C(=O)N3Cc3ccccc3)c(F)c2)cc1C
 : -8	-6	4	?	9.3%	-11%	-4.3
c1ccc(NCn2cncn2)nc1
 : 10	1	-5	8	-0.3%	24%	-3.4
CN(C)c1ccc(C2C3C(=O)N(c4ccc(C(=O)O)cc4)C(=O)C3ON2c2ccccc2)cc1 (stereo unspecified)
 : -3	1	8	10	0.5%	-6%	6.1
Cc1ccc(CN2C(=O)C(CC(C)C)Nc3ncnc(N4CCCCC4)c32)cc1 (stereo unspecified)
 : 0	-2	-5	nt	16%	nt	-5.1
CN(C(=O)c1cccc(NC(=O)Cc2cccc(NC(=O)C3CCN(C(=O)C4CC4)CC3)c2)c1)C1CCC1
 : 4	3	2	nt	0.0%	nt	3.2
O=c1c2c(n3cnnc3n1-c1ccccc1)-c1ccccc1CC21CCCC1
 : 7	-2	7	-8	1.6%	3%	-0.9
c1ccc2c(c1)CCCN2Cc1nnc2n1CCCCC2
 : -2	0	-8	12	6.0%[38.3 µM]	4%	-1.9
COc1ccc(C(=O)c2ccc(OC)cc2O)c(O)c1
 : -2	4	29	-5	2.4%	14%	-2.1
CCC(C)Sc1cccc(-c2nc3ccc(C)cn3c2NCc2ccccc2)c1 (stereo unspecified)
 : 0&10	-3&-7	-31	-17	?	nt	13
O=C(Nc1ccc(Nc2ccccc2)cc1)C(Cl)Cl
 : -12	-14	17	4	0.5%	-10%	-2.4
CCC(=O)Nc1nc2ccc(S(C)(=O)=O)cc2s1
 : 0	4	-18	-6	-0.8%	17%	-0.1
COc1ccc(CN(C)C(=O)c2ccccc2Sc2ccccc2C#N)c(OC)c1
 : 8	-5	-15	-14	1.2%	15%	-5.0

Carrying on.
The line under a structure holds: Six1-Eya2 blk	CtBP-E1A inh	D2 PAM	TRPV1 PAM	PINK1 expr mod	Sfp PPTase inh	D2 agonist
O=C1NN(c2ccccc2)C(=O)/C1=C/c1ccc(-c2ccc(C(=O)O)cc2)o1
 : -9	0	-3	21	0.0%	-1%	-3.7
Cn1c(Sc2ccc(C(F)(F)F)cc2[N+](=O)[O-])nnc1-c1ccccc1
 : -1	-5	27	-12	2.2%[38.3 µM]	18%	3.5
COc1ccc(N2C(=O)C3C4C=CC(c5ccccc5)(C3C2=O)C2C(=O)N(c3ccc(OC)cc3)C(=O)C42)cc1 (stereo unspecified)
 : 4	21	-51	4	-0.2%	11%	7.4
COc1ccc(-n2nc(C(=O)NCC(=O)NCc3ccccc3OC)c3ccccc3c2=O)cc1
 : -9	-15	-2	-1	2.9%	11%	-2.6
CCOC(=O)CSc1nc2c([nH]c3ccccc32)c(=O)n1C
 : 9	1	-1	-7	4.8%	1%	-1.7
N#Cc1ccccc1NC1=CC(=O)CCC1
 : 4	1	-14	2	?	5%	-2.4
Nc1ccnc(Oc2ccc(F)cc2)c1
 : 1	5	1	3	-1.1%	2%	-2.7
COc1cc2cc(C(=O)N3CCN(Cc4ccc5c(c4)OCO5)CC3)c(=O)oc2cc1OC
 : ?	1	-4	-6	-2.5%	12%	-0.8
NNC(=O)COc1ccc(-c2nccc(-c3ccc(F)cc3)n2)cc1
 : -4	nt	-14	-14	7.2%	3%	-3.4
CC(C)NC(=O)CSc1nc2ccccc2n1CC(=O)N1CCc2ccccc21
 : 5	5	-17	10	6.6%[38.3 µM]	8%	-1.5
C=CCNC(=O)CN(c1ccc(OC)cc1OC)S(C)(=O)=O
 : 1	2	-18	-13	1.2%	7%	-2.5
CCCN(C(=O)c1nc2nc(C)cc(C)n2n1)c1c(N)n(Cc2ccccc2)c(=O)[nH]c1=O
 : 7	2	-2	4	1.1%	nt	0.1
Cc1cc(C(F)(F)F)c2c(C)nn(-c3ccccc3)c2n1
 : 3	nt	-22	nt	16%	nt	-7.9
COc1ccc(N=N/C(=C\O)C(=O)c2ccco2)cc1
 : -4	nt	-4	?	1.0%	-10%	0.4
CC1CCN(c2oc(-c3ccccc3Cl)nc2C#N)CC1
 : ?	?	-10	-4	9.5%	?	-2.0
COc1ccc(S(=O)(=O)N(CC(=O)NC2CC3CCC2C3)c2ccccc2OC)cc1 (stereo unspecified)
 : -3	5	2	-31	1.3%	10%	-5.0
COCCn1c(N)c(C(=O)NS(=O)(=O)c2ccc(C)cc2)c(=O)[nH]c1=O
 : 11	7	-7	6	-1.0%	-6%	-2.9
CN(C)c1ccc(C(=O)OCC(=O)Nc2ccc(N3CCOCC3)cc2)cc1
 : -17	nt	-10	-1	3.7%	9%	-2.5
COc1ccc(C(=O)N2CCCC(O)C2)cc1OC1CCN(C(C)C)CC1 (stereo unspecified)
 : 1	8	-3	-2	1.7%	17%	-1.7
O=C(c1ccco1)N(Cc1cccc(Br)c1)C1CCS(=O)(=O)C1 (stereo unspecified)
 : -1	-4	-4	6	-0.6%	7%	-3.4
O=C(CN1CCN(c2ccccc2F)CC1)c1ccc(O)c(O)c1
 : 15	0	-15	4	1.2%	?	10
N/C(=N\OC(=O)Cc1ccc([N+](=O)[O-])cc1)c1ccc([N+](=O)[O-])cc1
 : -17	-16	9	13	2.3%	24%	7.7
CCC(CC)c1nn2c(N)c(/C=C3\C=Nc4ccccc43)c(=O)nc2s1
 : -7	-1	-14	10	17%	13%	-3.9
COc1ccc(CCNC(=O)COc2ccc(-c3ccccc3)cc2)cc1OC
 : 0	3	3	18	10%	11%	1.7
CN(/N=C/C=C/c1ccccc1)C1=NS(=O)(=O)c2ccccc21
 : ?	?	-12	6	20%	-2%	-1.5
O=C(C1CCCCC1)N1CCC(O)(c2ccc(Cl)cc2)CC1
 : 3	1	-7	-5	2.4%	4%	-0.6
O=C(CN1CC(c2ccccc2)CC1=O)OCc1cccc(Br)c1 (stereo unspecified)
 : 5	-1	-17	-11	-2.8%	0%	-0.2
CCOC(=O)c1ccc(NC(=O)CNC(=O)c2ccco2)cc1
 : 1	2	-7	9	-1.5%	8%	0.2
CCOc1cc(/C=C\[N+](=O)[O-])ccc1OCC(=O)Nc1ccccc1C
 : -1	nt	-3	7	-1.1%	2µM*	-2.8
Cn1nnnc1SCC(=O)N1CCOCC1
 : 0	1	-2	-13	1.8%	7%	0.0

Further records.
The line under a structure holds: Six1-Eya2 blk	CtBP-E1A inh	D2 PAM	TRPV1 PAM	PINK1 expr mod	Sfp PPTase inh	D2 agonist
Cn1nc(C(=O)NC2CCCc3ccccc32)ccc1=O (stereo unspecified)
 : -1	4	0	3	2.6%	14%	3.7
NNC(=O)c1sccc1OCc1cccc(C(F)(F)F)c1
 : 2	-17	-4	2	-2.6%	-11%	1.2
CNC(=O)c1cc(NC(=O)CCn2nc(-c3ccccc3)c3ccccc3c2=O)ccc1OC
 : -21	-10	14	?	2.8%	6%	1.1
O=C(CN1C(=O)NC2(CCOc3ccccc32)C1=O)c1cccs1 (stereo unspecified)
 : 2	12	-8	nt	1.3%	nt	-3.0
O=[n+]1cc(-c2cccc3ccccc23)n([O-])c2c1CCC2
 : 6	6	-6	6	-0.7%	1%	0.2
CCOc1ccc(C(C(=O)Nc2ccc(F)cc2)N(C(=O)Cn2nnc3ccccc32)C2CC2)cc1 (stereo unspecified)
 : -7	-3	-16	nt	1.4%[38.3 µM]	-3%	-0.9
Cc1ccc(S(=O)(=O)N2CCCN(Cc3nc4ccccc4c(=O)[nH]3)CC2)cc1
 : 2	-1	3	-9	11%	nt	0.5
CC(=O)c1nn(-c2cccc(Br)c2)cc1C(=O)c1ccc(C)cc1
 : 11	0	-14	7	nt	9%	0.5

Bioassay records deposited in PubChem by National Center for Advancing Translational Sciences (NCATS).
